Bioassay records as filed in PubChem.
Methyltransferases = Primary Screen for Target Class Profiling of Small Molecule Inhibitors of Methyltransferases | 25,000 tested, 3.9% active | calls only at 40 µM | AID 1745853, 2022 | purified enzyme, MTase-Glo SAH luminescence; hits give low values; active = -50% or lower on at least one of six enzymes; inconclusive = the cases between; inactive = as a rule above -30% on all six;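 further: enzymes were COMT GAMT GNMT HNMT NNMT and PNMT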
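Each enzyme was assayed with SAM and its substrate. SAH formation detected by MTase-Glo luminescence; single-point 40 uM screen[…].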
Calls only; i = inactive; ? = inconclusive; + = active, no number. On the % scale 0 is the no-effect control and ±100 the full control effect.

| molecule | Methyltransferases |
| --- | --- |
| C=C(C(=O)OC)C1C(O)CC2(C)C(=O)CCC(O)(CO)C2C1O (stereo not drawn) | i |
| O=c1cc(N2CCN(c3cccc(C(F)(F)F)c3)CC2)[nH]c(=O)n1C1CCCCC1 | i |
| CCc1cc2c(cc3n2CC(C)(C(=O)NC2CCC(C)CC2)N(Cc2ccccc2OC)C3=O)s1 (stereo not drawn) | i |
| O=C(/C=C/c1ccc(O)c(O)c1)OC[C@H]1O[C@@H](OC2CCCCC2O)[C@H](O)[C@@H](O)[C@@H]1O (stereo partly drawn) | i |
| CC1(C(=O)NCc2ccccc2Cl)Cn2cnc(C(=O)NCCc3cccs3)c2C(=O)N1C1CC1 (stereo not drawn) | i |
| O=C(COc1ccccc1)N1CCc2nn(Cc3ccccc3)c(=O)n2CC1 | i |
| CC(C)CCNC(=O)C1(C)Cn2c(cc3ccccc32)C(=O)N1Cc1ccc(Cl)cc1 (stereo not drawn) | i |
| CN1C(=O)c2cc(C(=O)NCC3CCCO3)nn2CC1(C)C(=O)NC1CCCCCC1 (stereo not drawn) | i |
| COc1cccc(CNC(=O)Cn2nc3n(Cc4ccccc4)c(=O)c4ccccc4n3c2=O)c1 | i |
| COCCOc1cc2nc[nH]c(=O)c2cc1OCCOC | i |

Shown with each value named: part of the list above
C=C(C(=O)OC)C1C(O)CC2(C)C(=O)CCC(O)(CO)C2C1O (stereo not drawn)
  Methyltransferases: i

O=C(/C=C/c1ccc(O)c(O)c1)OC[C@H]1O[C@@H](OC2CCCCC2O)[C@H](O)[C@@H](O)[C@@H]1O (stereo partly drawn)
  Methyltransferases: i

CC(C)CCNC(=O)C1(C)Cn2c(cc3ccccc32)C(=O)N1Cc1ccc(Cl)cc1 (stereo not drawn)
  Methyltransferases: i

More records
| molecule | Methyltransferases |
| --- | --- |
| CCCn1c(=O)c2cc(F)ccc2n2c(SCC(=O)N3CCN(c4ccccc4F)CC3)nnc12 | i |
| COc1ccc(C(=O)NC[C@H]2O[C@@H](CC(=O)N3CCN(c4ccccc4)CC3)[C@H](O)[C@@H]2O)cc1 | i |
| COc1ccc(Nc2n[nH]nc2C(=O)NCc2ccc3c(c2)OCO3)cc1 | i |
| O=C1CCCCC(CNC(=O)c2cn[nH]c2-c2ccccc2)N1 (stereo not drawn) | i |
| CC[C@H]1CN(S(=O)(=O)c2ccc(OC)cc2)CC[C@H]1CC(=O)NCc1cccnc1 | i |
| CCCN1C(=O)c2c(C(=O)NCc3ccc(OC(C)C)cc3)ncn2CC1(C)C(=O)NCc1ccccc1 (stereo not drawn) | i |
| COc1ccc(OC)c2c1cc1n2CC(C)(C(=O)NC2CCCC2)N(Cc2ccccc2F)C1=O (stereo not drawn) | i |
| O=c1c2ccccc2n2c(-c3cccc(F)c3)nnc2n1Cc1ccccc1 | i |
| Cn1cc(-c2ccncc2)c(-c2ccc(OCc3ccc4ccccc4n3)cc2)n1 | ? |
| COc1cc(/C=C\c2ccc(O)cc2)cc(OC)c1 | ? |

Further results
| molecule | Methyltransferases |
| --- | --- |
| CC(O)C(C)n1ncn(-c2ccc(N3CCN(c4ccc(OCC5COC(Cn6cncn6)(c6ccc(Cl)cc6Cl)O5)cc4)CC3)cc2)c1=O (stereo not drawn) | i |
| CCOC(=O)c1cc2n(n1)CC(C)(C(=O)NC1CCCCCC1)N(Cc1cccc(F)c1)C2=O (stereo not drawn) | i |
| CC(C)(C)c1cc2n(n1)CC(C)(C(=O)NC1CCCCC1)N(Cc1cccc(F)c1)C2=O (stereo not drawn) | i |
| CCOc1ccc(N2C(=O)c3cc(-c4cccs4)nn3CC2(C)C(=O)NC2CCCCC2)cc1 (stereo not drawn) | i |
| Cc1ccc(CNC(=O)c2ncn3c2C(=O)N(C2CC2)C(C)(C(=O)NC2CCCC2)C3)cc1 (stereo not drawn) | i |
| Cc1ccccc1CN1C(=O)c2cc3sccc3n2CC1(C)C(=O)NC1CCCCCC1 (stereo not drawn) | i |
| Cc1ccc(C(=O)C(C)n2nc3n(C(C)C)c(=O)c4ccc(C(=O)NCC(C)C)cc4n3c2=O)cc1C (stereo not drawn) | i |
| Cc1nc(CC(=O)N2CCCC(c3ccc(C(=O)O)cc3)C2)cs1 (stereo not drawn) | i |
| Cn1cc(CN2C[C@@H]3C[C@H](C2)c2ccc(NC(=O)COc4ccccc4)c(=O)n2C3)c2ccccc21 | i |
| CC[C@H](C)/C=C(C)/C=C/C(=O)Cc1cc(O)c(C)c(O)c1C=O | i |

Going on with the list.
| molecule | Methyltransferases |
| --- | --- |
| CN(C(=O)c1ccc(F)cc1C(F)(F)F)C1CCN(c2nnc(-c3ccnn3C)c3ccccc23)CC1 | i |
| Cn1c(=O)c2ccc(C(=O)NC3CCCC3)cc2n2c(SCC(=O)Nc3ccccc3F)nnc12 | i |
| COc1ccc(CC2C(=O)NC(C)C(=O)N(C)C3Cc4ccc(cc4)Oc4cc(ccc4OC4OC(CO)C(O)C(O)C4O)CC(C(=O)NC(C)C(=O)NC(C)C(=O)N2C)N(C)C3=O)cc1 (stereo not drawn) | i |
| NC1=NC2(c3cc(NC(=O)c4ccc(F)cn4)ccc3F)COCC2CS1 (stereo not drawn) | ? |
| CC(C)n1c(=O)c2ccc(C(=O)NC3CCCCC3)cc2n2c(=O)n(Cc3ccccc3Cl)nc12 | i |
| CCOc1cc(=O)n2c(c1C(=O)NC1CCCC1)CCCCC2 | i |
| CC(=O)NCCNc1nc2c(-c3cccc(C)c3)nnn2c2ccc(Cl)cc12 | i |
| Cc1cc2c(cc3n2CC(C)(C(=O)NC2CCCCC2)N(Cc2ccccc2C)C3=O)o1 (stereo not drawn) | i |
| O=C(C1CC1)N1CCN2C(=O)N(C3CCCCC3)C[C@H]2C1 | i |
| COC(=O)CC[C@@H](C)[C@H]1CC[C@H]2[C@@H]3CC(=O)[C@H]4C[C@H](OC(C)=O)CC[C@]4(C)[C@H]3CC[C@]12C | i |

Other structures follow.
| molecule | Methyltransferases |
| --- | --- |
| COCCN(CCOC)CC[C@@H]1CC[C@H](O)[C@@H](C(=O)NC2CCCCC2)O1 | i |
| CCCN1C(=O)c2ccc(-c3ccccc3)n2CC1(C)C(=O)NC1CCCCC1 (stereo not drawn) | i |
| O=C(NC1CC(c2nnc(CO)n2C2CC2)C1)c1ccc2c(c1)CCO2 (stereo not drawn) | i |
| CCc1cc2c(cc3n2CC(C)(C(=O)NC2CCCCCC2)N(Cc2ccc(F)cc2)C3=O)s1 (stereo not drawn) | i |
| CCOC(=O)c1cc2n(n1)CC(C)(C(=O)NCc1ccccc1)N(c1ccc(OCC)cc1)C2=O (stereo not drawn) | i |
| CC(C)Cn1c(=O)c2ccccc2n2c(=O)n(CC(=O)c3ccc(Br)cc3)nc12 | i |
| C=CCNC(=O)N[C@H]1C[C@@H](C(=O)N[C@@H](CCS(C)(=O)=O)C(N)=O)N(C(=O)CSC)C1 | i |
| Cc1onc(-c2c(Cl)cccc2Cl)c1C(=O)N[C@@H]1C(=O)N2[C@@H]1SC(C)(C)[C@@H]2C(=O)O | i |
| CC(C)C1CCC(CO)=CC1/C=C(\CO)C(=O)OCC1(O)CCC(C(C)C)C2C=C(C(=O)O)COC(=O)C21 (stereo not drawn) | i |
| Cc1cnc(CNC(=O)c2c(=O)c3ccc(N4CCCN(C)CC4)nc3n3c2sc2ccccc23)cn1 | ? |

Next section
| molecule | Methyltransferases |
| --- | --- |
| Cc1ccc(C)c(NC(=O)[C@@H]2CCCN2S(=O)(=O)c2cccc3cccnc23)c1 | i |
| COC(=O)[C@H](OC(C)=O)[C@H]1C(C)(C)C(=O)[C@H]2CC3=C4CC(=O)O[C@@H](c5ccoc5)[C@]4(C)CCC3[C@@]1(C)C2=O (stereo partly drawn) | i |
| CN1CCN(S(=O)(=O)c2ccc(F)cc2)CC12CCNC(=O)CC2 (stereo not drawn) | i |
| O=[N+]([O-])c1cc(Cl)ccc1S(=O)(=O)N1CCN(Cc2ccccc2)CC1 | i |
| CC(c1ccccc1)N1C(=O)c2ccccc2CC1(C)C(=O)NC1CCCCCC1 (stereo not drawn) | i |
| CN1C(=O)Cc2cc(S(=O)(=O)NCCN3CCN(c4ccccc4F)CC3)ccc21 | i |
| NC(=O)C1CCN(c2nc3c(-c4cccc(F)c4)nnn3c3ccc(Cl)cc23)CC1 | i |
| C=Cc1ccc(Cn2nc3n(CCC(C)C)c(=O)c4ccc(C(=O)NCC(C)C)cc4n3c2=O)cc1 | i |
| CCOc1ccc(NC(=O)Cn2c(=O)oc3cc(S(=O)(=O)N4CCCC4)ccc32)cc1 | i |
| Fc1ccc(CN2CCn3c(nnc3-c3ccncc3)C2)cc1 | i |

Looked up by structure from the entries so far (2):
| molecule | Methyltransferases |
| --- | --- |
| O=C1CCCCC(CNC(=O)c2cn[nH]c2-c2ccccc2)N1 (stereo not drawn) | i |
| CCCn1c(=O)c2cc(F)ccc2n2c(SCC(=O)N3CCN(c4ccccc4F)CC3)nnc12 | i |

Remaining list, next part:
SMILES,Methyltransferases
O=C(Nc1ccc2ncnc(N3CCCCC3)c2c1)c1cc(F)ccc1F,+
COc1cccc(N2C(=O)c3cc4occc4n3CC2(C)C(=O)NC2CCC(C)CC2)c1 (stereo not drawn),i
Clc1ccc2c(c1)C1C=CCC1C(c1ccccc1Br)N2 (stereo not drawn),i
O=S1(=O)NCC2(CCN(Cc3ccc(Cl)s3)CC2)Oc2ncccc21,i
Cc1ccc2n1CCN(C(=O)Nc1cccc(Cl)c1)C2C(C)C (stereo not drawn),i
CC(=O)OC[C@@]12[C@H](O)C[C@]3(C)C(=CCC4[C@@]5(C)CC[C@H](O[C@@H]6O[C@H](C(=O)O)[C@@H](O[C@@H]7O[C@H](CO)[C@@H](O)[C@H](O)[C@H]7O)[C@H](O)[C@H]6O[C@@H]6O[C@H](CO)[C@@H](O)[C@H](O)[C@H]6O)[C@](C)(CO)C5CC[C@]43C)[C@@H]1CC(C)(C)[C@@H](OC(C)=O)[C@@H]2O (stereo partly drawn),i
CC(C)OCCCNc1nc2c(-c3ccc(Cl)cc3)nnn2c2ccccc12,i
O=c1cc(OCc2ccc(F)cc2)ccn1-c1ccc(OCCN2CCCC2)cc1,i
COc1cccc2c1OCC(NS(=O)(=O)c1ccc(Cl)cc1)C2 (stereo not drawn),i
CCC(C)NC(=O)CCn1ccc2cc(S(=O)(=O)N3CCCCC3)ccc21 (stereo not drawn),i
CNC(=O)[C@@H]1CN(C(=O)c2n[nH]c3ccccc23)C[C@H]1COC,i
CC1(C(=O)NC2CCCCCCC2)Cn2c(cc3sccc32)C(=O)N1CCCc1ccccc1 (stereo not drawn),i
Cc1ccc(NC(=O)Cn2nc3n(CC(C)C)c(=O)c4ccc(C(=O)NCC(C)C)cc4n3c2=O)cc1C,i
CCOc1ccc(N2C(=O)c3cc4ccccc4n3CC2(C)C(=O)NC2CCCCCC2)cc1 (stereo not drawn),i
Cc1cc(-c2cc3c(cn2)N(C)CCN(C)C3)ccn1,+
C=C1C(=O)OC2CC(C)=C(C(C)CCCO)C(O)C12 (stereo not drawn),?
CCc1ccc(S(=O)(=O)c2nnn3c2nc(NCc2cccc(OC)c2)c2ccccc23)cc1,i
COC(C(=O)Nc1ccnn1C1CCN(C(=O)CO)CC1)c1ccccc1 (stereo not drawn),i
CCOc1ccc(C2c3cccn3-c3sc4c(c3CN2C(=O)Nc2ccc(C)cc2)CCCC4)cc1 (stereo not drawn),i
Cc1cccc(-c2nnn3c2nc(N2CCC(C)CC2)c2ccccc23)c1,i

Compounds shown so far that contain bromine (2):
SMILES,Methyltransferases
CC(C)Cn1c(=O)c2ccccc2n2c(=O)n(CC(=O)c3ccc(Br)cc3)nc12,i
Clc1ccc2c(c1)C1C=CCC1C(c1ccccc1Br)N2 (stereo not drawn),i

The listing continues:
SMILES,Methyltransferases
Clc1ccc2ncc(-c3cccc(NC4CCNCC4)n3)n2c1,?
Cc1cccc([C@H]2Nc3ccc(S(=O)(=O)Nc4cc(C)ccc4C)cc3[C@H]3C=CC[C@H]32)c1,i
CCc1cc2c(cc3n2CC(C)(C(=O)NC2CCC(C)CC2)N(Cc2cccs2)C3=O)s1 (stereo not drawn),i
CN(C)CCOc1cc(-c2cn[nH]c2)ccc1NC(=O)C1COc2ccccc2O1 (stereo not drawn),i
CN(C)C(=O)c1nc2sccn2c1Br,i
CSCCC(=O)N1CCCC1C(=O)Nc1cccc(-n2cccn2)c1 (stereo not drawn),i
COc1ccccc1-c1cccc(C(=O)N2CCN(C(=O)c3ccc(F)cc3)CC2)c1,i
CCOC(=O)c1cc2n(n1)CC(C)(C(=O)NC1CCCC1)N(c1ccccc1C)C2=O (stereo not drawn),i
CCCN1CCn2c3c(c4cc(OC)ccc42)CCN=C31,?
Brc1c(Br)c(Br)c2[nH]cnc2c1Br,+
CCCN1CCN(CCCN2C(=O)c3cc4occc4n3CC2(C)C(=O)NC2CCCCC2)CC1 (stereo not drawn),i
CC(O)/C=C/C1(O)C(C)C(O)C(O[C@@H]2O[C@H](CO)[C@@H](O)[C@H](O)[C@H]2O)CC1(C)C (stereo partly drawn),i
COC1C=C(C)C(O)(CO)C2(C)CCCC(C)(C)C12 (stereo not drawn),+
Cc1ccc(CN2C(=O)c3cc4occc4n3CC2(C)C(=O)NC2CCCCC2)cc1 (stereo not drawn),i
COc1ccc(/C=C/c2nc(NCCCN(C)C)c3ccccc3n2)cc1,+
O=C(Nc1nn(Cc2ccccc2)c2cccc(N3CCOCC3)c12)C1CCC1,i
CS(=O)(=O)NC1CCN(Cc2cc(=O)c3cc(C(N)=O)ccc3[nH]2)CC1,i
C[C@@H]1O[C@@H](O[C@H]2[C@@H]3C=CO[C@@H](O[C@@H]4O[C@H](CO)[C@@H](O)[C@H](O)[C@H]4O)[C@@H]3[C@@]3(CO)O[C@@H]23)[C@H](OC(=O)/C=C/c2ccc(O)cc2)[C@H](O)[C@H]1O,i
C=C(C)C1CC2(CO)C(=CC1=O)CCC(O)C2C (stereo not drawn),i
CCCn1c(=O)c2ccc(C(=O)NCC(C)C)cc2n2c(SCC(=O)NC(C)(C)C)nnc12,i
CNC(=O)c1ccccc1Nc1nc(Nc2ccc(N3CCNCC3)cc2)ncc1Cl,+

Not all compounds are listed; the hit share may differ from the screen's.
